Source: PubChem
StopGo reporter – lowers the luciferase signal of an FMDV 2A StopGo reporter; human cells with a luciferase reporter of 2A StopGo recoding; control for the full effect not named in the record; Potency, µM (highest dose often 57.9 µM), without a hit: at the top dose signal change, negative = less light; actives 1.2% (n = 410,000); active = well fitted falling curve with a large enough effect; inconclusive = small, poorly fitted or top-dose-only effect; inactive = no such curve, though single readings can be large or run the other way; tested in HEK293T cells; also: % is scaled to controls: 0 for no effect and ±100 for the full control effect; nearly all actives have a fitted effect of over 45% in size; luciferase light after 4 h
Cruzain inh Det – cruzain (T. cruzi) inhibition with detergent; AID 1478; purified cruzain, Z-FR-AMC fluorescence, 0.01% Triton; P25779; actives 0.43% (n = 200,000); Potency, µM, without a hit: max response, negative = inhibition, hits mostly inhibitors; active = well fitted curve in the direction sought with a large enough effect; inconclusive = small, poorly fitted or top-dose-only effect, or another doubt; inactive = no such curve, though single readings can be large; an effect the other way counts as inactive or inconclusive;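 also: plate controls were neutral wells for no effect and buffer without enzyme for full effect; nearly all actives have a fitted effect of over 40% in size; top concentration of the series not given in the record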
Target sequence (P25779 123-467 limits assumed): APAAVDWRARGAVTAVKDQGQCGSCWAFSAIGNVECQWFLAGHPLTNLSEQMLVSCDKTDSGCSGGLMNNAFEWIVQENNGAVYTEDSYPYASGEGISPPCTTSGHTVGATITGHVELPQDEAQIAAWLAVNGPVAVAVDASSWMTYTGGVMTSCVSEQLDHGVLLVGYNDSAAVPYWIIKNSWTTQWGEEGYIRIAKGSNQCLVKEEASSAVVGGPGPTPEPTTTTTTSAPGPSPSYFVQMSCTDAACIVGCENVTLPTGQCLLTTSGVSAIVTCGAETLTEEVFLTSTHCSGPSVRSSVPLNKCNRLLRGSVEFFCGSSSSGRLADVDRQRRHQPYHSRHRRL
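Sodium acetate buffer (100 mM, pH 5.5) containing 5 mM DTT and 0.01% Triton X-100 hosted 1.5 nM cruzain and test compound for 15 min at room temperature. Cleavage of 2 uM Z-FR-AMC was then tracked by fluorescence.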
RE007 growth inh – less growth of the S. pombe RE007 Vpr strain; Potency, µM (titrated, usually from 92.2 µM), for inactives: top-dose activity change, negative = less growth; S. pombe RE007 Vpr strain, BacTiter-Glo ATP luminescence, 24 h; control for the full effect not named in the record; AID 651644; actives 0.21% (n = 360,000); active = well fitted falling curve with a large enough effect; inconclusive = small, poorly fitted or top-dose-only effect; inactive = no such curve, though single readings can be large or run the other way;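 also: % is scaled to controls: 0 for no effect and ±100 for the full control effect; nearly all actives have a fitted effect of over 50% in size; the assay follows cell death caused by Vpr and the record does not say whether a fall means rescue or toxicity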
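Fission yeast RE007 carrying one integrated HIV-1 vpr copy, seeded at OD 0.01 in PMG+AL medium with 23 nL pinned compound. Grown 24 h at 30 degrees; viability read by BacTiter-Glo luminescence after 5 min.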
Lassa entry inh – Lassa virus entry inhibition; Lassa virus pseudotype entry inhibition, cell reporter; control for the full effect not named in the record; Potency, µM (highest dose often 37.9 µM), without a hit: top-dose activity change, negative = inhibition, usual class: inhibitors; actives 1.2% (n = 300,000); AID 540256; active means well fitted inhibition curve with a large enough effect; inconclusive means small, poorly fitted or top-dose-only effect, or effect the other way; inactive means flat fitted curve, though single readings scatter; tested in HEK293 cells; also: % is scaled to controls: 0 for no effect and ±100 for the full control effect; nearly all actives have a fitted effect of over 50% in size; luciferase read-out
SARS PLpro yeast – SARS-CoV PLP inhibition in yeast; Potency, µM (top dose mostly 32.9 µM), for the others: at the highest dose activity, positive = growth rescue; actives 0.19% (n = 330,000); S. cerevisiae expressing SARS-CoV PLpro, growth rescue; control for the full effect not named in the record; also: 0% is about no effect; nearly all actives have a fitted effect of over 55% in size; growth read by luminescence after 48 h
NS1 function inh – blocks influenza NS1 protein function. S. cerevisiae slowed by influenza A NS1, growth recovery by OD600. Potency, µM (titrated, usually from 46.1 µM), for inactives: at the highest dose activity, positive = more growth. actives 0.4% (n = 270,000). AID 2326; also: actives are rising curves; nearly all actives have a fitted effect of over 50% in size
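S. cerevisiae expressing influenza A NS1, grown in glucose, washed, then diluted 1:100 into pH 6.0 -URA galactose medium with 23 nl compound. Growth recovery read as OD600; NS1-free strain serves as control.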
Cruzain noTriton – blocks cruzain activity in detergent-free assay. actives 2.3% (n = 200,000). Potency, µM, inactives show max response, negative = inhibition, hits mostly inhibitors. P25779. purified cruzain, Z-FR-AMC fluorescence, no detergent; active = well fitted curve in the direction sought with a large enough effect; inconclusive = small, poorly fitted or top-dose-only effect, or another doubt; inactive = no such curve, though single readings can be large; an effect the other way counts as inactive or inconclusive;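 also: plate controls were enzyme without inhibitor for no effect and buffer without enzyme for full effect; nearly all actives have a fitted effect of over 40% in size; top concentration of the series not given in the record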
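Purified cruzain at 1.5 nM, pre-incubated 15 min with compound at room temperature in 100 mM sodium acetate pH 5.5, 5 mM DTT, 0.00005% Triton X-100. Reaction started with 2 uM Z-FR-AMC; AMC fluorescence increase over 60 s gives rate.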
MARV entry inh – Marburg virus entry inhibition; actives 1.8% (n = 300,000); Potency, µM (doses to about 37.8 µM), inactives show at the top dose activity change, negative = inhibition, hits mostly inhibitors; Marburg virus pseudotyped entry inhibition, cell reporter; control for the full effect not named in the record; about a third of the inactives were read at about 46 µM; active = well fitted inhibition curve with a large enough effect; inconclusive = small, poorly fitted or top-dose-only effect, or effect the other way; inactive = flat fitted curve, though single readings scatter; tested in HEK293 cells; about a fifth of its hits are not listed in these tables; also: % is scaled to controls: 0 for no effect and ±100 for the full control effect; luciferase read-out
Starred values were filed as active, the others as inactive; ? = inconclusive; nt = not tested or not shown; & = joins results of further samples; [ ] = dose if it differs, or a comment. Unless noted, calls follow the shape of the dose curve; as a rule, active means well fitted rising curve with a large enough effect; inconclusive means small, poorly fitted or top-dose-only effect; inactive means no such curve, though single readings can be large or run the other way. Potency is read from the fitted curve at half-maximal effect.

SMILES | StopGo reporter | Cruzain inh Det | RE007 growth inh | Lassa entry inh | SARS PLpro yeast | NS1 function inh | Cruzain noTriton | MARV entry inh
NNC(=O)CN1C(=O)Nc2ccc(Cl)cc2C1c1ccccc1 (stereo not drawn) | -21% | nt | -10% | nt | -4% | 12% | nt | nt
Cc1cnc(C(=O)Nc2ccc(C)c(S(=O)(=O)N3CCCCCC3)c2)cn1 | ? | nt | 12% | -21% | -1% | nt | nt | -3%
CCCCNC(=O)c1nn(-c2ccc(C)cc2)c(=O)n(C)c1=O | 12% | -4.0% | nt | 2%[46.1 µM] | nt | nt | -16% | nt
CCc1cccc(NC(=O)CCSCCC(=O)Nc2cccc(CC)c2)c1 | 3% | -3.1% | -1% | 0% | -11% | -12% | 12% | 6%[46.1 µM]
Cc1ccc(CN(C(=O)c2csnn2)C(C(=O)NC2CCCC2)c2ccccn2)cc1 (stereo not drawn) | 16% | nt | -19% | -4% | 2% | -1% | nt | -4%[46.1 µM]
CC(=O)N1CCCc2cc(S(=O)(=O)N3CCCC(C(=O)Nc4cccc(Cl)c4C)C3)ccc21 (stereo not drawn) | ? | -1.8% | nt | -7%[46.1 µM] | nt | nt | 21% | nt
COc1ccc(NC(=O)C2CCCCN2S(=O)(=O)c2ccc(F)cc2)cc1 (stereo not drawn) | 5% | -0.4% | -13% | nt | -13% | -11% | 0% | nt
Cc1ccc(C(=O)N2CCN3C(=O)c4ccccc4C23c2ccc(Cl)cc2)cc1 (stereo not drawn) | -12% | 1.8% | 3% | ? | -21% | 9% | 7% | ?
CC(=O)Nc1ccc(-c2nnn(CC(=O)c3ccc(F)cc3)n2)cc1Cl | -18% | nt | -10% | nt | -1% | -2% | nt | nt
CC(C)N1CCc2c(sc(NC(=O)c3cc4cc([N+](=O)[O-])ccc4s3)c2C(N)=O)C1 | -22% | nt | -1% | nt | 0% | -1% | nt | nt
Nc1c(NC(=O)CC[n+]2ccccc2)cccc1[N+](=O)[O-] | -9% | -6.1% | -17% | 7% | 6% | 12% | -8% | 2%
CCCC(=O)NCc1cc(-c2nn(C)c(=O)c3ccccc23)ccc1OC | 2% | nt | 1% | ? | 0% | -1% | nt | 0%[46.1 µM]
Cc1cc(=O)oc2cc(NC(=O)C3COc4ccccc4O3)ccc12 (stereo not drawn) | nt | -4.2% | 4% | ? | 0% | 4% | ? | ?
Cc1ccc(C(=O)Nc2ccccc2C(=O)O)cc1NC(=O)COc1c(C)cccc1C | 4% | nt | 18% | nt | 0% | 2% | nt | nt
CCn1cc(C(=O)OCC(=O)Nc2cc(Cl)ccc2OC)c(=O)c2ccc(C)nc21 | -23% | -2.1% | nt | ? | nt | nt | 9% | -1%[46.1 µM]
Cc1nnc(SCCn2c(N3CCC(C)CC3)nc3c2c(=O)n(C)c(=O)n3C)s1 | -15% | nt | 4% | -5% | nt | nt | nt | 0%
CCN(CC)S(=O)(=O)c1cccc(C(=O)Nc2ccc(Cl)cn2)c1 | ? | 5.9% | 0% | ? | -4% | -71% | -14% | ?
O=C(NCCN1CCOCC1)C(=O)NCC1OCCN1S(=O)(=O)c1ccc(Br)cc1 (stereo not drawn) | -23% | nt | -12% | 11% | -4% | 5% | nt | 3%
CC1=NN(C(=O)c2cccnc2)C(O)(C(F)(F)F)C1 (stereo not drawn) | -7% | nt | 45% | 35%[46.1 µM] | -2% | nt | nt | -11%[46.1 µM]
C=CCN(CC(=O)O)S(=O)(=O)c1ccccc1C(F)(F)F | 10% | nt | 0% | 1% | 1% | 4% | nt | -12%[46.1 µM]
Cc1ccc2[nH]c(=O)c(CN(Cc3cccs3)Cc3nnnn3CC3CCCO3)cc2c1 (stereo not drawn) | nt | 1.4% | 4% | 6% | 13% | -13% | ? | -5%&-1%
Cc1n[nH]c(=O)nc1NCc1ccccc1Cl | 0% | 3.2% | -20% | 15% | -3% | 1% | 8% | 3%
N=C1c2ccccc2CN1NC(=O)c1ccco1 | -1% | nt | 12% | 15% | -4% | nt | nt | 3%
CCC(=O)NCCc1cc2cc(C)c(C)cc2[nH]c1=O | -3% | 3.2% | 28% | ? | 3% | -2% | -5% | 15%
Cc1cc(N2CCN(C)CC2)nc2ccc(NC(=S)N3CCCCCC3)cc12 | 30%[activator] | nt | 12% | nt | 0% | 4% | nt | nt
Cc1c(NC(=O)CCCN2C(=O)c3cccc4cccc(c34)C2=O)c(=O)n(-c2ccccc2)n1C | -20% | nt | 10% | 4%[46.1 µM] | 0% | nt | nt | ?
N#CCCN(Cc1ccccc1)S(=O)(=O)c1cccs1 | 0% | nt | 2% | nt | 1% | 3% | nt | nt
Cc1cc(C)c2c(CN3CCCCC3C)cc(=O)oc2c1 (stereo not drawn) | -1% | nt | -14% | 16%[46.1 µM] | 1% | 3% | nt | -8%[46.1 µM]
CCCc1cc(-c2[nH]ncc2-c2ccc3c(c2)OCCCO3)c(O)cc1O | 14µM* | -11% | 18% | ? | -1% | 7% | -5% | 15µM*
Cc1ccc(O)c(C(CC(=O)NC2CCCCC2)c2ccccc2)c1 (stereo not drawn) | -5% | nt | 3% | ? | 2% | nt | nt | ?
CCOc1cc(/C=C/C(=O)O)ccc1OCCO | -4% | nt | -8% | 11% | 0% | 3% | nt | 2%
CC(C)OCCCNC(=O)c1ccccc1Oc1ccccc1 | -14% | -2.6% | -11% | 10% | 12% | -47% | -16% | -9%
COc1cccc(/C=N/NC(=O)Cn2nc([N+](=O)[O-])cc2C)c1 | 4% | nt | 0% | -1% | 0% | 1% | nt | 6%
Cc1cc(C(=O)COc2ccc(Cl)cc2Br)c(C)n1C | 6% | nt | 1% | ? | -3% | -10% | nt | ?
O=C(N/N=C/c1c(O)n(-c2ccccc2Cl)c(=O)c2ccccc12)C1COc2ccccc2O1 (stereo not drawn) | 3% | -9.8% | 4% | ? | 11µM* | 3.5µM* | 12% | ?
Cc1cccc(Nc2ccc(C(=O)O)cc2[N+](=O)[O-])c1C | -2% | nt | 2% | ? | -2% | -56% | nt | -2%
COc1ccc(-c2nc3ccccc3n2OC(=O)N(C)C)cc1 | 11% | 14% | 3% | 11% | 1% | -12% | 20% | 27%[46.1 µM]
Cc1ccc(-n2ccc(=O)c(-c3ccnc(SCc4cccc(Cl)c4)n3)n2)cc1 | ? | 2.6% | 4% | ? | 8% | 6% | 3% | ?
C=CCCCCCCCCC(=O)NNC1CC(=O)N(c2ccccc2)C1=O (stereo not drawn) | 1% | nt | 10% | nt | 0% | 2% | nt | nt
O=C1N/C(=N\N=C\c2cccs2)SC1Cc1ccc(Cl)cc1 (stereo not drawn) | -28% | -5.7% | -16% | ? | 9% | 5% | 2.5µM* | -2%
CCc1nn(CC(=O)NCCc2ccc(Cl)cc2)c(=O)c2cccn12 | -3% | nt | -2% | nt | -2% | -9% | nt | nt
COc1cc(/C=N/NC(=S)NCc2ccco2)cc(OC)c1OC | ? | -24% | -7% | -17% | ? | 24% | -6% | -3%
COc1ccc(CNC(=O)CSc2nc3cccnc3s2)cc1 | 26% | nt | -4% | nt | 0% | -5% | nt | nt
CCN(C(=O)c1coc(=O)c2ccccc12)c1cc(OC)ccc1OC | -2% | 7.4% | -8% | -4% | -1% | 1% | -3% | -19%[46.1 µM]
COc1ccc(C)cc1NC(=O)CN1C(=O)COc2ccc(S(=O)(=O)N3CCCCC3)cc21 | 1% | nt | -3% | 12%[46.1 µM] | 1% | 0% | nt | 1%[46.1 µM]
Cc1cc(C)n(CC(=O)n2c(C)c(C)c3ccccc32)n1 | -16% | -0.6% | -2% | -4% | 3% | 4% | -2% | 2%[46.1 µM]
O=C(c1cccc(C(=O)N(c2ccccn2)C2CCCCC2)c1)N(c1ccccn1)C1CCCCC1 | -7% | nt | -15% | ? | -3% | 6% | nt | 9.2µM*
CCCCC(O)(CCCC)C(=O)N/N=C(\C)c1ccc(Cl)cc1 | -23% | nt | -3% | -44%[46.1 µM] | -1% | -2% | nt | 11µM*
O=C(CCCC(=O)c1ccccc1)Nc1ccc(O)cc1 | -17% | nt | 1% | nt | -1% | -2% | nt | nt
Cc1csc(NC(=O)c2cncc(Br)c2)n1 | -6% | nt | -16% | nt | 1% | -6% | nt | nt
Fc1ccc(CSc2ncnc3scc(-c4ccccc4)c23)cc1 | ? | -6.6% | 11% | -1% | 1% | 3% | -7% | ?
CSc1nnc(N2C(=O)C(O)=C(C(=O)c3ccc(C)o3)C2c2ccc(C)cc2)s1 (stereo not drawn) | 43%[activator] | nt | 3% | nt | -3% | 5% | nt | nt
O=C(OCc1nc2ccsc2c(=O)[nH]1)c1cc(Br)c(Br)s1 | 0% | nt | -12% | -35% | ? | nt | nt | -10%[46.1 µM]
COc1ccc(S(=O)(=O)NCc2ccc3c(c2)CCN3C(=O)c2ccccc2)cc1OC | -13% | -0.3% | nt | -26%[46.1 µM] | nt | nt | 3% | nt
COc1ccccc1CNc1ncnc2c1cnn2-c1ccc(C)cc1 | -6% | -1.0% | nt | 21%[46.1 µM] | nt | nt | 10% | nt
CCOC(=O)C(NC(=O)c1ccc(OC)cc1)(N1CCCC1=O)C(F)(F)F (stereo not drawn) | -18% | -1.2% | 12% | 0% | -7% | -6% | 21% | 15%
CCCCn1c(N)c(N(CC)C(=O)CCNC(=O)NC23CC4CC(CC(C4)C2)C3)c(=O)[nH]c1=O | -20% | nt | 6% | -3% | 4% | -2% | nt | 9%
Cc1cc(-c2ccccc2C(=O)NCc2ccccc2)on1 | 1% | 4.2% | -1% | 3% | -2% | 6% | -4% | 23%
COc1ccc(/C=C/C(=O)N(CC(C)C)CC(C)C)cc1Br | -13% | -5.7% | 7% | ? | -16% | 13% | ? | -9%
NC(=O)CC(NC(=O)c1cccc(Br)c1)c1ccc(NC2CCN(Cc3ccccc3)CC2)c([N+](=O)[O-])c1 (stereo not drawn) | -24% | nt | -16% | nt | 3% | -13% | nt | nt
Cc1cccc(-c2noc(CCc3ccccc3)n2)c1 | 55%[activator] | 0.8% | -4% | nt | -7% | -19% | -9% | nt
